UCH37 DUB inh: inhibitors of human UCH37 deubiquitinase, primary screen, biochemical, Ub-AMC cleavage, fluorescence | Ubiquitin carboxyl-terminal hydrolase isozyme L5 (Homo sapiens), Q9Y5K5 | purified proteasome/UCH37 | inhibition, % (test concentration not listed) | 0.33% of 330,000 active;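 active = mean of two replicates above 20%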;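 also: 0% = compound-free wells with enzyme and 100% = wells lacking proteasome; stock transfer was 100 nL into about 20 µL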
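Signal – fluorescence, ex 355 nm, em 460 nm · System – Proteasome-bound UCH37 · Input – 0.15 nM proteasome as dispensed · Timing – 30 min preincubation with enzyme, 25 min cleavage at room temperature · Read-out basis – percent inhibition of cleavage signal versus uninhibited and no-proteasome wells · Medium – Tris-HCl pH 7.4 with ATP-MgCl2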
ALR H2O2 inh: inhibitors of human ALR sulfhydryl oxidase, primary screen, biochemical, H2O2 detection, HRP-luminol luminescence, single point | purified ALR, DTT oxidation | AID 485317, 2010 | inhibition, % (test concentration not listed) | FAD-linked sulfhydryl oxidase ALR (Homo sapiens), P55789 | 3.8% of 290,000 active;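 active = mean and each replicate at 75% or more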;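 also: stock transfer was 7.5 nL into about 7.5 µL; 0% = neutral wells and 100% = wells with inactivated enzyme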
Target sequence (P55789 whole entry, looked up): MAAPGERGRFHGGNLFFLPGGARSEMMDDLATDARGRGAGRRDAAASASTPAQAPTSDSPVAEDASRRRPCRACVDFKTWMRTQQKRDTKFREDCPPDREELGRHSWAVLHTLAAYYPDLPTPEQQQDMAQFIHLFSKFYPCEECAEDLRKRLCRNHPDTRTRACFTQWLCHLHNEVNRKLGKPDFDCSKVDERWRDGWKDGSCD
Ecoli rRNA inh: reduced GFP signal of wild-type E. coli, primary screen, bacterial rRNA inhibitor project, GFP/RFP fluorescence, OD600, single point. E. coli WT GFP vs humanized-ribosome RFP mutants, 24 h; active compounds read low; DMSO median 0, no signal -100. GFP signal change (wild-type ribosome), % (concentration not given with the values). 1.6% of 350,000 active;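 active = significant combined selectivity score with lowered wild-type GFP, culture density cut under 30%, mutant RFP and density less affected; inactive = any of these conditions unmet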; also: one replicate is shown; some compounds called inactive have numbers as strong as hits
E coli growth: E. coli growth inhibition, primary screen, OD600; 0.21% of 330,000 active; Escherichia coli growth, 23 h; active compounds read low; OD600 absorbance (no concentration beside the values);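 active = OD600 absorbance below the run mean of sample wells minus 3.6 SD, in any replicate, cut at about 0.56 in these data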;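 also: stock transfer was 300 nL into about 60 µL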
HNF4A DNA FP: change in binding of human HNF4A to DNA, primary screen, biochemical, fluorescence polarization, FITC-DNA; AID 1224865, 2016; Hepatocyte nuclear factor 4-alpha (Homo sapiens), P41235; activity change, % at 10 µM; 0.3% of 360,000 active; 1 h; in the data active = activity change above about 30%, passing the limit was not always enough;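 also: controls were the assay level and a saturating level of protein; the project sought stronger binding though the title names inhibitors; some compounds called inactive have numbers as strong as hits; positive values seem to mean higher polarization but the record does not say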
Target sequence (P41235 whole entry, looked up): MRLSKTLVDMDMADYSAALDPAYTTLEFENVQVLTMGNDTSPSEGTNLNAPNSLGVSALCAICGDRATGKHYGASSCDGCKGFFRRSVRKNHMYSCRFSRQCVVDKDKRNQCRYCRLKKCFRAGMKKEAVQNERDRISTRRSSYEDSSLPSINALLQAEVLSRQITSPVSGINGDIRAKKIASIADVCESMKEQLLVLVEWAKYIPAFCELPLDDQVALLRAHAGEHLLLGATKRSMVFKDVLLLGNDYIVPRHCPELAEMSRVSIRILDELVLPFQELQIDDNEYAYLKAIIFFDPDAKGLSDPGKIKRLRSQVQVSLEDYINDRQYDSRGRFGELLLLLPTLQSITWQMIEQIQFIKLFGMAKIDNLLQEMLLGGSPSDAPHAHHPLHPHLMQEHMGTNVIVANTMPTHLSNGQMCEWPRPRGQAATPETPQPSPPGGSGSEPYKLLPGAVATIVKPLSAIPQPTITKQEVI
Beta2AR agonist: beta2AR agonists driving receptor internalization, primary screen, cell-based, FAP fluorogen, flow cytometry; Beta-2 adrenergic receptor (Homo sapiens), P07550; Am2.2-beta2AR cells; reference of the scale not given here; response, % (test concentration not listed); 0.43% of 340,000 active; AID 504454, 2011;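 active = response above a set limit, near 3 SD of response in nonfluorescent compounds, cut at about 42% in these data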;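 also: stock transfer was 100 nL into about 11 µL; a reference agonist was the positive control; negative values mostly stem from fluorescent compounds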
FGF22 binding: binders of human FGF22 protein, primary screen, FGF22 synaptogenesis inhibitor project, biophysical, thermal shift, single point. calls only at 9.99 µM. 1.5% of 340,000 active. Fibroblast growth factor 22 (Homo sapiens), Q9HCT0. recombinant FGF22 thermal shift, SYPRO orange fluorescence; percent of sucrose octasulfate shift, DMSO zero;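 active = melting point raised past a set limit in the mean and every replicate; three in four hits are not shown here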
Target sequence (Q9HCT0 whole entry, looked up): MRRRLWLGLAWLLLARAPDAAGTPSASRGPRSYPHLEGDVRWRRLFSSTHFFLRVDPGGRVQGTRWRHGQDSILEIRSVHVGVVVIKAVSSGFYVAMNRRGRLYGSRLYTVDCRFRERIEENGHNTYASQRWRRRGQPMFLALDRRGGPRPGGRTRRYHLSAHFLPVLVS
Ecoli rRNA inh OD600: recorded beside Ecoli rRNA inh, whose call it bears; OD600 change, %; measured here: OD600 growth;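 optical density of the mix in the first replicate; 0 = DMSO median and -100 = no signal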
Ecoli rRNA inh RFP: recorded beside Ecoli rRNA inh, whose call it bears; RFP signal change, %; measured here: RFP humanized mutant strains;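 first replicate; 0 = DMSO median and -100 = no signal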
* hit, by the source's call; i = inactive; . = no result given; + = active, no number. An excerpt, so the mix of outcomes need not match the whole.

Every second line gives: UCH37 DUB inh	ALR H2O2 inh	Ecoli rRNA inh	Ecoli rRNA inh OD600	Ecoli rRNA inh RFP	E coli growth	HNF4A DNA FP	Beta2AR agonist	FGF22 binding
> O=C(O)Cn1nnn(-c2ccccc2)c1=S
    -0.4	-15	.	.	.	0.7	5.1	5	.
> COc1ccc(/C=C2\Sc3ccc(C(=O)NCC4CCCO4)cc3N(C)C2=O)cc1 (stereo not drawn)
    -18	-1	-10	-7	16	0.69	4.5	0	i
> COc1cc(OC)cc(C(=O)N[C@H](C(=O)Nc2c(C)n(C)n(-c3ccccc3)c2=O)C(C)C)c1
    -2.7	-4	3	11	-2.9	0.71	3.7	5	i
> Cc1cc(C)c2ccc(C)[n+]([O-])c2c1O
    6.6	-10	.	.	.	0.67	1.1	-1	.
> Cc1ccccc1NC(=O)C(=O)NCCc1ccccc1
    2.6	-4	.	.	.	0.73	0.3	-2	.
> O=C(O)c1ccc(OS(=O)(=O)c2cccc(C(F)(F)F)c2)cc1
    4.7	.	1	-15	0.1	0.7	-1.7	0	i
> CCc1nnc(NC(=O)CSc2nc3cc4c(cc3cc2CC)OCCO4)s1
    0.6	-7	.	.	.	0.74	-1.1	6	.
> O=C1c2ccccc2C(=O)N1Cc1cc(Cl)c(O)c([N+](=O)[O-])c1
    5.4	5	-9	-5	-1.9	0.65	1.0	7	i
> O=C(Nc1nnc(-c2ccc(Cl)cc2)o1)NC1CCCCC1
    0.3	0	.	.	.	0.76	-1.0	4	.
> COc1ccc(-c2sc3ccccc3c2/C=C/c2ccc(N)cc2)cc1
    .	-4	1	4	-9.8	.	-3.5	-22	i
> Cn1c(=O)c2[nH]c(CCCc3nc4ccccc4[nH]3)nc2n(C)c1=O
    0.0	.	5	11	-8.5	0.7	-3.6	-1	i
> CN(CCCNC(=O)c1nn(C)c2c1CS(=O)(=O)c1ccccc1-2)Cc1ccccc1
    9.0	0	1	2	-1.8	0.7	1.1	-8	i
> O=C(Cn1c(=S)[nH]c2ncccc2c1=O)NCCc1ccccc1
    3.7	39	8	1	3.4	0.72	.	.	i
> CSc1nc(NCC(C)C)c2c3c(sc2n1)CN(C)CC3
    -166	0	.	.	.	0.74	7.1	-7	.
> COCCCN1C(=O)c2ccc(C(=O)N3CCN(c4ccccc4OC)CC3)cc2C1=O
    4.3	5	5	2	1.3	0.68	0.3	-2	i
> CCOC(=O)c1sc(NC(=O)c2ccc(C)s2)cc1C
    -62	-9	.	.	.	0.69	-3.4	0	.
> CC(C)c1ccc(C(=O)NC(=S)NCc2cccnc2)cc1
    0.9	-2	-15	-23	5.3	0.64	0.3	-5	i
> Cc1cc(C)nc(SCC(=O)OCC(=O)Nc2ccccc2)n1
    0.7	-1	0	0	-1.7	0.7	5.1	13	i
> CC(Sc1nncs1)C(=O)NCc1ccc2c(c1)OCO2 (stereo not drawn)
    3.9	-10	.	.	.	0.71	-0.5	-6	.
> Cc1cccc(C(=O)N2CCCC(N3CCN(Cc4ccc5c(c4)OCO5)CC3)C2)n1 (stereo not drawn)
    3.9	-6	13	11	-3.3	0.7	1.9	16	i

Other compounds:
Every second line gives: UCH37 DUB inh	ALR H2O2 inh	Ecoli rRNA inh	Ecoli rRNA inh OD600	Ecoli rRNA inh RFP	E coli growth	HNF4A DNA FP	Beta2AR agonist	FGF22 binding
> CCN(CC)C(=O)[C@H]1C[C@H](CC(=O)NCc2ccco2)C(=O)N2CCc3c([nH]c4ccc(Cl)cc34)[C@]12C
    0.7	.	-30	-48	-5.1	0.69	2.1	0	i
> OCC[C@H]1C[C@H](O)[C@@H](O)[C@]2(OCCc3ccccc32)O1
    4.9	-4	9	20	4.8	.	-1.1	-1	i
> CCn1c(NC(=O)C(C)C)c(-c2ccccc2)c(=O)c2ccccc21
    0.1	-2	19	-2	2.0	0.65	2.0	-3	i
> Cc1ccc2nc(-c3ccc4c(c3)OCCO4)cc(C(=O)O)c2c1
    -0.6	53	.	.	.	0.7	-1.0	0	.
> Cc1ccc(C)c(N2CCN(C3CCCC(C)C3)CC2)c1 (stereo not drawn)
    2.5	0	1	-3	-2.2	0.58	-0.1	10	i
> CCOC(=O)/C(C#N)=C/C1=C(N2CCOCC2)C(C)(C)OCC1
    4.6	-10	6	5	2.0	0.66	0.5	-6	i
> O=C(COC(=O)c1ccccc1)Nc1ccccc1N1CCOCC1
    3.4	67	.	.	.	0.69	0.2	2	.
> Cn1cc(SCC(=O)NCC2CCCO2)c2ccccc21 (stereo not drawn)
    5.1	97*	9	2	-0.9	0.78	-0.2	4	i
> COC(=O)[C@]1(Cc2ccccc2)N[C@H](CN(C)S(=O)(=O)c2ccc(C)cc2)[C@@H]2C(=O)N(Cc3ccccc3)C(=O)[C@@H]21
    4.8	.	6	6	-0.7	0.76	5.4	3	+
> CCOC(=O)/C=C/c1ccc2c(c1)S(=O)(=O)N(Cc1ccc(OC)cc1)[C@H]2CC(=O)OCC
    2.7	75	-16	-20	-1.8	.	0.7	-5	i
> CNC(=O)CN(c1ccc(C(C)C)cc1)S(C)(=O)=O
    2.1	-1	.	.	.	0.71	3.7	4	.
> Cc1cc(Cl)ccc1C(=O)C1CCCN(C(=O)c2cccnc2C)C1 (stereo not drawn)
    2.7	-1	4	-1	0.3	0.64	4.9	5	i
> Cc1ccc(S(=O)(=O)Nc2cccnc2Oc2ccc(Cl)cc2)cc1
    0.6	2	-24	-35	-1.0	0.68	-4.1	-1	i
> CC1CCCCN1c1nc2nonc2nc1N1CCCCC1C (stereo not drawn)
    4.4	.	.	.	.	0.68	-0.6	0	.
> Cc1cccc(NC(=O)c2nc[nH]c2C(=O)NCCCCNC(=O)c2[nH]cnc2C(=O)Nc2cccc(C)c2)c1
    -4.6	3	8	11	0.8	0.74	0.9	9	i
> COc1ccc(S(=O)(=O)N2CCc3ccccc3C2)cc1C(=O)O
    -1.1	-8	6	3	-0.3	0.69	1.9	-3	i
> CC1(c2ccccc2)NC(=O)N(CC(=O)NCc2cccc(Cl)c2)C1=O (stereo not drawn)
    6.6	-1	-1	-2	0.8	0.65	7.1	1	i
> O=[N+]([O-])c1ccc(/C=N/Nc2nc3ccccc3o2)cc1
    .	-14	9	16	2.8	.	-4.4	-8	i
> O=C(COC(=O)c1cccnc1Cl)NC(=O)NC1CCCCC1
    3.9	0	0	-1	5.7	0.67	-2.3	4	i
> CN(C(=S)Nc1ccc(F)cc1)C(c1ccccc1)c1ccccc1
    -3.1	0	6	-30	-4.0	0.66	-4.4	-4	i

Overlap with the part before: 4 entries, followed by the next part.
Every second line gives: UCH37 DUB inh	ALR H2O2 inh	Ecoli rRNA inh	Ecoli rRNA inh OD600	Ecoli rRNA inh RFP	E coli growth	HNF4A DNA FP	Beta2AR agonist	FGF22 binding
> CC1(c2ccccc2)NC(=O)N(CC(=O)NCc2cccc(Cl)c2)C1=O (stereo not drawn)
    6.6	-1	-1	-2	0.8	0.65	7.1	1	i
> O=[N+]([O-])c1ccc(/C=N/Nc2nc3ccccc3o2)cc1
    .	-14	9	16	2.8	.	-4.4	-8	i
> O=C(COC(=O)c1cccnc1Cl)NC(=O)NC1CCCCC1
    3.9	0	0	-1	5.7	0.67	-2.3	4	i
> CN(C(=S)Nc1ccc(F)cc1)C(c1ccccc1)c1ccccc1
    -3.1	0	6	-30	-4.0	0.66	-4.4	-4	i
> COc1ccc(N(CC(=O)NCc2ccc(F)cc2)S(=O)(=O)c2c(C)n[nH]c2C)cc1
    -0.1	-1	-5	-8	-2.1	0.68	-0.8	3	i
> CN(CC(=O)Nc1ccc(F)cc1)CC(=O)N1CCCCC1
    0.1	.	3	15	-1.0	0.67	-5.3	-3	i
> O=C1c2cc3c(cc2CCC1c1ccc2c(c1)OCO2)OCO3 (stereo not drawn)
    .	.	-6	-29	-6.6	.	-5.0	.	i
> COc1ccc(C(C)=O)cc1COc1ccc([N+](=O)[O-])c(C)c1
    2.6	-7	2	-1	-1.1	0.66	1.6	-9	i
> CC(O)C(NS(=O)(=O)c1ccc(Cl)cc1)C(=O)OCC(=O)c1c[nH]c2ccccc12 (stereo not drawn)
    -0.4	-3	-23	-22	-0.6	0.69	-1.6	-1	i
> O=C(CSc1nc2c(cnn2-c2cccc(Cl)c2)c(=O)[nH]1)NCC1CCCO1 (stereo not drawn)
    -2.2	0	6	-7	-2.7	0.69	3.1	0	i
> O=C(CN(C(=O)c1csnn1)c1ccc(F)cc1)NCc1ccc2c(c1)OCO2
    3.7	-9	0	0	-1.0	0.71	-1.7	-4	i
> O=C(Cn1cnnn1)Nc1cccc(S(=O)(=O)N2CCCCC2)c1
    -1.6	2	5	6	1.8	0.68	0.9	4	i
> CCSc1oc(-c2cccs2)nc1S(=O)(=O)c1ccccc1
    0.4	-30	-4	-23	4.6	0.76	5.2	-16	i
> COc1cccc(CNC(=O)C(CCSC)NS(=O)(=O)c2ccc3c(c2)oc(=O)n3C)c1 (stereo not drawn)
    2.1	.	.	.	.	0.69	1.1	-11	.
> O=C1Nc2c(Br)cc(Br)cc2C1(O)N1CCOCC1 (stereo not drawn)
    5.4	-6	.	.	.	0.69	0.7	14	.
> O=C(NC(Cc1c[nH]c2ccccc12)c1nnc2n1CCCCC2)c1ccccc1Cl (stereo not drawn)
    -1.0	-3	.	.	.	0.68	-0.8	-4	.
> CC1CN(C(=S)NC(=O)c2ccc([N+](=O)[O-])cc2)CC(C)O1 (stereo not drawn)
    1.7	4	.	.	.	0.79	-1.1	-5	.
> COc1cccc(C(=O)Nc2cc(Cl)c(O)c(Cl)c2)c1
    3.3	89*	-2	1	8.6	0.67	3.1	8	i
> COc1cc2c(cc1OC)C(C(=O)Nc1ccc3c(c1)OCCO3)C(c1cccnc1)N(C)C2=O (stereo not drawn)
    4.4	.	.	.	.	0.7	-1.1	-4	.
> Cc1cc(C)c(C#N)c(SCC(=O)c2ccccc2)n1
    1.8	-5	-4	-4	-2.3	0.7	1.6	-17	i
> CC(=O)N1CCN(CC(C)(C)NS(=O)(=O)c2ccccc2)CC1
    -0.9	2	3	8	-1.6	0.64	2.2	1	i
> CCOC(=O)C1(Cc2ccccc2)CCN(Cc2cc(OC)c3c(c2)OCO3)CC1
    -5.0	-13	-14	-11	1.4	0.63	3.0	1	i
> CC1(C)NC(=O)N(CC(=O)N2CCC(Cc3ccccc3)CC2)C1=O
    -3.3	1	7	-2	-0.8	0.71	-1.1	2	i
> COc1ccc(-c2cc(C(=O)OCC(=O)N3CCCC3)c3ccccc3n2)cc1
    -25	-28	.	.	.	0.68	-2.3	-3	.
> CCn1c(=N)n(CC(O)c2cccs2)c2ccccc21 (stereo not drawn)
    4.8	-5	6	7	-0.3	0.67	-2.0	2	i
> CCOC(=O)C1(C(=O)O)NC(=O)CC1c1ccccc1 (stereo not drawn)
    0.4	1	.	.	.	0.67	-2.0	-3	.
> CC(Oc1ccc(Cl)cc1Cl)c1nc(-c2ccc(NC(=O)c3ccncc3)cc2)no1 (stereo not drawn)
    1.6	.	-5	3	8.0	0.7	3.5	5	i
